Cruzain noTriton = qHTS Assay for Promiscuous and Specific Inhibitors of Cruzain (without detergent); AID 1476, 2009; Potency, µM, for the others: max response, negative = inhibition, actives largely listed as inhibitors; hit rate 2.3% among 200,000; purified cruzain, Z-FR-AMC fluorescence, no detergent;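 note: plate controls were enzyme without inhibitor for no effect and buffer without enzyme for full effect; nearly all actives have a fitted effect of over 40% in size; top concentration of the series not given in the record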
Target sequence (P25779 123-467 limits assumed): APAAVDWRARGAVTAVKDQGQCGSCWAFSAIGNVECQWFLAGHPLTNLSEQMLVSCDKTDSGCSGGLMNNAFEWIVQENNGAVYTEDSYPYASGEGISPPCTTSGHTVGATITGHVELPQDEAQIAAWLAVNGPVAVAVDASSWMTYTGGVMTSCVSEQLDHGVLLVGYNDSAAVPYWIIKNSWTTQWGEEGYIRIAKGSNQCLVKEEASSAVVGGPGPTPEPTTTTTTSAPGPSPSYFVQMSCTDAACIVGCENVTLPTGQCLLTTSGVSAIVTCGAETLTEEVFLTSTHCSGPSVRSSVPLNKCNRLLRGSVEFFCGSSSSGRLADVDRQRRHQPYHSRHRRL
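Purified cruzain at 1.5 nM, pre-incubated 15 min with compound at room temperature in 100 mM sodium acetate pH 5.5, 5 mM DTT, 0.00005% Triton X-100. Reaction started with 2 uM Z-FR-AMC; AMC fluorescence increase over 60 s gives rate.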
Cruzain Triton = qHTS Assay for Promiscuous and Specific Inhibitors of Cruzain (with detergent). purified cruzain, Z-FR-AMC fluorescence, 0.01% Triton. Potency, µM, for inactives: max response, negative = inhibition, usual class: inhibitors. hit rate 0.43% among 200,000;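 note: plate controls were neutral wells for no effect and buffer without enzyme for full effect; nearly all actives have a fitted effect of over 40% in size; top concentration of the series not given in the record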
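Steps: dispense cruzain (1.5 nM final) in acetate buffer pH 5.5 with DTT and 0.01% Triton X-100; pin-transfer compounds; incubate 15 min RT; add Z-FR-AMC (2 uM final); read fluorescence every 30 s, using the 60 s intensity change.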
MARV entry inh = qHTS for inhibitors of binding or entry into cells for Marburg Virus; Marburg virus pseudotyped entry inhibition, cell reporter; control for the full effect not named in the record; about a third of the inactives were read at about 46 µM; Potency, µM (highest dose often 37.8 µM), for inactives: at the top dose activity change, negative = inhibition, actives largely listed as inhibitors; hit rate 1.8% among 300,000; AID 540276, 2011; active = well fitted inhibition curve with a large enough effect; inconclusive = small, poorly fitted or top-dose-only effect, or effect the other way; inactive = flat fitted curve, though single readings scatter; tested in HEK293 cells; about a fifth of its hits are not listed in these tables; note: % is set by controls: 0 for no effect and ±100 for the full control effect; luciferase read-out
StopGo reporter = High Throughput Screening for Foot and Mouth Disease Virus Antivirals; hit rate 1.2% among 410,000; Potency, µM (doses to about 57.9 µM), without a hit: top-dose signal change, negative = less light; human cells with a luciferase reporter of 2A StopGo recoding; control for the full effect not named in the record; active = well fitted falling curve with a large enough effect; inconclusive = small, poorly fitted or top-dose-only effect; inactive = no such curve, though single readings can be large or run the other way; tested in HEK293T cells; note: % is set by controls: 0 for no effect and ±100 for the full control effect; nearly all actives have a fitted effect of over 45% in size; luciferase light after 4 h
SARS PLP yeast = qHTS of Yeast-based Assay for SARS-CoV PLP. S. cerevisiae expressing SARS-CoV PLpro, growth rescue; control for the full effect not named in the record. AID 485353, 2010. Potency, µM (titrated, usually from 32.9 µM), for inactives: at the highest dose activity, positive = growth rescue. hit rate 0.19% among 330,000; active means well fitted rising curve with a large enough effect; inconclusive means small, poorly fitted or top-dose-only effect; inactive means no such curve, though single readings can be large or run the other way; note: 0% is about no effect; nearly all actives have a fitted effect of over 55% in size; growth read by luminescence after 48 h
RE007 growth inh = qHTS Assay for Inhibitors of the HIV-1 protein Vpr. Potency, µM (doses to about 92.2 µM), for inactives: at the top dose activity change, negative = less growth. AID 651644, 2012. hit rate 0.21% among 360,000. S. pombe RE007 Vpr strain, BacTiter-Glo ATP luminescence, 24 h; control for the full effect not named in the record; active = well fitted falling curve with a large enough effect; inconclusive = small, poorly fitted or top-dose-only effect; inactive = no such curve, though single readings can be large or run the other way;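 note: % is set by controls: 0 for no effect and ±100 for the full control effect; nearly all actives have a fitted effect of over 50% in size; the assay follows cell death caused by Vpr and the record does not say whether a fall means rescue or toxicity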
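Fission yeast strain RE007, carrying one chromosomally integrated HIV-1 vpr copy, was seeded at OD 0.01 in PMG+AL medium with 23 nL pinned compound. After 24 h at 30 °C and 99% humidity, viability was read by BacTiter-Glo luminescence.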
NS1 function inh = qHTS Assay for Inhibitors of Influenza NS1 Protein Function | Potency, µM (highest dose often 46.1 µM), for the others: top-dose activity, positive = more growth | hit rate 0.4% among 270,000 | S. cerevisiae slowed by influenza A NS1, growth recovery by OD600; active means well fitted rising curve with a large enough effect; inconclusive means small, poorly fitted or top-dose-only effect; inactive means no such curve, though single readings can be large or run the other way; note: nearly all actives have a fitted effect of over 50% in size
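OD600 was taken as the measure of yeast growth restored by compound in an NS1-expressing S. cerevisiae strain. Cells had been washed out of glucose medium and diluted 1:100 into galactose -URA medium, pH 6.0.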
LASV entry inh = qHTS for Inhibitors of binding or entry into cells for Lassa Virus; Lassa virus pseudotype entry inhibition, cell reporter; control for the full effect not named in the record; Potency, µM (titrated, usually from 37.9 µM), for the others: at the highest dose activity change, negative = inhibition, actives largely listed as inhibitors; hit rate 1.2% among 300,000; active means well fitted inhibition curve with a large enough effect; inconclusive means small, poorly fitted or top-dose-only effect, or effect the other way; inactive means flat fitted curve, though single readings scatter; tested in HEK293 cells; note: % is set by controls: 0 for no effect and ±100 for the full control effect; nearly all actives have a fitted effect of over 50% in size; luciferase read-out
An asterisk follows results filed as active; ? = inconclusive; nt = no result given; & = joins results of further samples; [ ] = remark or other dose. Unless noted, calls come from the whole dose curve; as a rule, active = well fitted curve in the direction sought with a large enough effect; inconclusive = small, poorly fitted or top-dose-only effect, or another doubt; inactive = no such curve, though single readings can be large; an effect the other way counts as inactive or inconclusive. Potency is the fitted concentration of half-maximal effect. Random draw from the library; about 4.7% have a hit in one of these screens.

SMILES	Cruzain noTriton	Cruzain Triton	MARV entry inh	StopGo reporter	SARS PLP yeast	RE007 growth inh	NS1 function inh	LASV entry inh
CC1=C(C)CC(C(=O)N2CCN(Cc3ccccc3)CC2)C(C(=O)O)C1 (stereo unspecified)	1%	6.5%	5%	13%	2%	-14%	6%	-9%
CC(=O)c1ccc(NC(=O)C2CCCN(S(=O)(=O)c3ccc4c(c3)CCCN4C(C)=O)C2)cc1 (stereo unspecified)	0%	-4.9%	nt	?	nt	nt	nt	10%[46.1 µM]
O=C1CN(C(=O)CCCc2c[nH]c3ccccc23)c2ccccc2N1	-7%	-1.9%	5%	-13%	2%	6%	?	-3%
CCOc1ncccc1C(=O)Nc1ccc2c(c1)OCCO2	nt	nt	0%[46.1 µM]	-5%	-3%	0%	nt	4%[46.1 µM]
O=C(COC(=O)COc1cccc(Br)c1)NCc1ccc2c(c1)OCO2	nt	nt	-3%	1%	-2%	1%	nt	5%
CCOC(=O)c1[nH]c2cc3c(cc2c1NC(=O)CN1CC(C)CC(C)C1)OCO3 (stereo unspecified)	3%	-1.1%	?	-4%	-2%	5%	6%	0%
CCOc1ccc(NS(=O)(=O)c2ccc(OCC(=O)N3CCCC3)cc2)cc1	-9%	7.6%	1%&14%	nt	8%	-3%	-2%	13%
COc1cccc(NC(=O)C2CCC(CNS(=O)(=O)c3ccc4c(c3)CCCC(=O)N4)CC2)c1 (stereo unspecified)	1%	-0.9%	nt	?	nt	nt	nt	-3%[46.1 µM]
Brc1ccc(OCc2nc3ccccc3[nH]2)cc1	nt	nt	nt	9%	-7%	-23%	-5%	nt
Cc1ccc(S(=O)(=O)CCC(=O)Nc2nnc(-c3ccc(F)cc3)o2)cc1	nt	nt	-2%	1%	-5%	-11%	nt	1%[46.1 µM]
Cc1ccc(NC(=O)CCc2nnc3ccc(NCc4ccco4)nn23)cc1F	nt	nt	nt	-15%	34%	8%	30%	nt
O=C(NCc1ccc(Cl)cc1)C1CCN(S(=O)(=O)c2cccc3nonc23)CC1	1%	-2.4%	8%&-8%[46.1 µM]	?	24%	-6%	-2%	-22%
Cc1ccc(N=C2NC(=O)c3cc([N+](=O)[O-])ccc32)cc1	18%	-1.8%	?	21%	-13%	2%	6%	-3%
CCOC(=O)c1cccc(-n2c(C)cc(C=O)c2C)c1	4%	-1.0%	?	?	-4%	9%	15%	?
O=C(NCc1ccc(Cl)cc1)c1cnccn1	-7%	0.1%	-5%	-19%	4%	6%	0%	-1%
CCCn1nnnc1NC(=O)COc1ccc(Cl)c(C)c1	-1%	-0.3%	26%	-7%	19%	1%	-4%	18%
COc1cccc(C(=O)NCCS(=O)(=O)N2CCCCCC2)c1	nt	nt	28%	-3%	-3%	0%	nt	6%
O=C(NC1CCCCC1)c1ccc(-c2ccccc2F)o1	nt	nt	?	?	-1%	-25%	nt	?
COC(=O)C1(c2ccccc2)NC(c2cccs2)C2C(=O)N(C)C(=O)C21 (stereo unspecified)	8%	1.9%	14%	-15%	1%	-19%	5%	10%
CCOc1ccc(Br)cc1/C=N/NC(=O)c1ccncc1	-4%	-5.2%	3%	-2%	-1%	-6%	3%	15%
O=C1/C(=C\c2ccncc2)N2CCC1CC2	nt	nt	-1%	-4%	0%	-5%	-7%	nt
COc1cc2c(c(OC)c1OC)C(c1ccc(C)cc1)CC(=O)O2 (stereo unspecified)	3%	7.1%	nt	-23%	5%	10%	nt	nt
CCOC(=O)C1(Cc2cccc(F)c2)CCN(Cc2nc(CC)[nH]c2C)CC1	nt	nt	?	-27%	0%	-8%	5%	-6%
CCOc1ccc(-c2c(C)nn3c(C)c(C(=O)Nc4cc(C)cc(C)c4)cnc23)cc1OCC	-1%	5.4%	nt	?	nt	nt	nt	25%[46.1 µM]
COc1ccc(NC(=O)CSCC(=O)N(C)CC(=O)Nc2ccc(Cl)c(C(F)(F)F)c2)cc1	nt	nt	-7%[46.1 µM]	-26%	1%	9%	nt	10%
CCCc1ccc(/C=C2\C(=O)c3ccccc3C(O)=C2C(=O)OCC)cc1	-30%	-3.8%	nt	nt	-28%	nt	1%	nt
COc1ccc(NS(=O)(=O)c2ccc(NC(=O)c3ccc(N(C)S(C)(=O)=O)cc3)cc2)cc1	16%	-8.5%	?	?	-15%	-6%	-1%	?
O=C(/C=C/c1cccc([N+](=O)[O-])c1)N(c1ccccn1)c1ccccn1	nt	nt	nt	?	0%	6%	5%	nt
O=C(OCC(=O)c1ccccc1Br)c1ccncc1	nt	nt	0%	-9%	-11%	13%	nt	?
O=C(NC(=S)NCCc1ccc(Cl)cc1)c1ccco1	-15%	-12%	23%	-9%	19%	-8%	-9%	?
Cc1ccc(S(=O)(=O)N2CCCCC2)cc1NC(=S)NC(=O)c1ccco1	nt	nt	nt	-19%	-1%	1%	15%	nt
Cc1noc(C)c1S(=O)(=O)N1CCCC(C(=O)Nc2nccs2)C1 (stereo unspecified)	-4%	3.6%	nt	?	17%	-9%	-5%	nt
O=C(Nc1cccc(C(F)(F)F)c1)N1CCN(C(=O)Nc2cccc(C(F)(F)F)c2)CC1	?	2.2%	-18%	-26%	-2%	-8%	13%	4%
O=c1c2ccccc2nc2n1CCc1c-2[nH]c2ccccc12	?	-4.9%&2.9%	?	32%[activator]	nt	-12%	-13%	?
COCCn1c(=NC(=O)CCS(=O)(=O)c2ccccc2)sc2cc(C)ccc21	nt	nt	-34%	0%	-1%	-5%	5%	-27%
O=C(NNC(=S)NC(=O)c1ccccc1)c1cccc([N+](=O)[O-])c1	nt	nt	-16%	-9%	-3%	-25%	-80%	-13%
c1cncc(-c2csc(NCc3ccco3)n2)c1	0%	4.2%	?	44%[activator]	-12%	-14%	-47%	0%
CCOC(=O)c1c(-c2cccc([N+](=O)[O-])c2)csc1NC(=O)CCCOc1ccccc1OC	-10%	-7.1%	-26%&-26%	-19%	-10%	-3%	3%	-23%
O=C(O)CCN1C(=O)/C(=C\c2ccc(-c3nc4ccccc4s3)o2)SC1=S	?	-1.6%	20%	8%	5%	5%	9%	?
Cc1ccc(Cn2ccc(NC(=O)c3cc(-c4ccc(Cl)cc4)on3)n2)cc1	1%	-3.2%	-16%	4%	-1%	5%	12%	5%
Cc1ccc2c(c1)N(CC(=O)NCc1ccco1)C(=O)C(C(C)C)O2 (stereo unspecified)	nt	nt	nt	1%	3%	-7%	-6%	nt
O=C1/C(=C\c2ccco2)SC(=S)N1c1ccc(O)cc1	-19%	-17%	?	-3%	nt	?	-29%	-27%
CCOc1ccc(NS(=O)(=O)c2ccc3[nH]c(=O)c(=O)[nH]c3c2)cc1	nt	nt	28%[46.1 µM]	10%	1%	-21%	nt	17%
Cc1ccccc1OCc1nnc(SCC(=O)O)n1-c1cccc(Cl)c1	nt	nt	nt	1%	0%	1%	?	nt
CCOC(=O)CSC1=NC(=O)CS1	-5%	2.5%	-12%	-18%	-15%	-22%	?	-21%
Cc1ccc(C)c(CN2C(=O)c3ccccc3S(=O)(=O)c3ccc(C(=O)N4CCOCC4)cc32)c1	?	-0.4%	7%[46.1 µM]	13%	nt	nt	nt	-12%[46.1 µM]
COC(=O)CCCC(=O)Nc1ccc(Cl)c(Cl)c1	-12%	-5.3%	5%	-8%	-5%	11%	-19%	6%
CCN1CCN(C(=S)Nc2sc(C)c(-c3ccccc3)c2C(=O)OC)CC1	nt	nt	-25%	0%	1%	1%	10%	?
CCN1C(=O)C2(C(C#N)=C(N)Oc3n[nH]c(C(C)C)c32)c2ccccc21 (stereo unspecified)	-2%	8.7%	9%	-14%	4%	-11%	-1%	-1%
Nc1nc(CSc2nc3ccccc3s2)nc(N2CCOCC2)n1	nt	nt	4%	-1%	0%	-13%	-2%	-4%
Cc1cc(C)n(-c2nc3ccccc3[nH]c2=O)n1	-3%	-4.3%	-3%	-1%	-15%	20%	7%	-5%
O=[N+]([O-])c1cnccc1NC1CCCCC1	nt	nt	nt	0%	-1%	-9%	5%	nt
CCOC(=O)C1CCCCN1Cc1cccc(Oc2ccccc2)c1 (stereo unspecified)	nt	nt	?	-22%	-9%	-21%	-32%	-9%[46.1 µM]
COc1ccc(NC(=O)C2CCN(S(=O)(=O)c3c(C)noc3C)CC2)cc1OC	nt	nt	nt	-26%	-5%	3%	2%	nt
COc1cccc(C(=O)NCC(=O)OCc2cc(=O)n3c(C)csc3n2)c1	-1%	-6.2%	nt	-6%	nt	nt	nt	8%[46.1 µM]
CCOC(=O)C1(S(=O)(=O)c2ccccc2)CCN(Cc2ccc(Cl)cc2)CC1	0%	0.4%	-12%	?	-4%	5%	-65%	-17%
CC(C)N1CCN(Cc2cn[nH]c2C2CCCCC2)CC1CCO (stereo unspecified)	nt	nt	?	-16%	0%	2%	-1%	0%[46.1 µM]
CCN(CC(=O)N1CCOCC1)S(=O)(=O)c1ccc2ccccc2c1	nt	nt	nt	16%	-3%	8%	8%	nt
CO/N=C/NC(=O)c1c(OC)ccnc1Oc1ccc(Cl)cc1	6%	1.3%	11%	0%	16%	-5%	0%	10%
Cn1c(=O)c2c([nH]c(=S)n2Cc2ccc(Cl)cc2)n(C)c1=O	nt	nt	5%[46.1 µM]	3%	-6%	9%	15%	0%[46.1 µM]
Additional results.
SMILES	Cruzain noTriton	Cruzain Triton	MARV entry inh	StopGo reporter	SARS PLP yeast	RE007 growth inh	NS1 function inh	LASV entry inh
COc1ccc(NC(=O)c2cc(C)cc(C)c2)cc1[N+](=O)[O-]	nt	nt	?	7%	-1%	-6%	-5%	?
COc1ccc(Cl)cc1/C=C/c1ccc2cccc(O)c2n1	nt	nt	nt	32%[activator]	-1%	1%	2%	nt
N#C/C(C(=O)c1ccccc1)=C1/CCCN1	0%	3.0%	9%	26%	4%	19%	0%	6%
COc1ccc(CCNC(=O)C(=O)Nc2ccc(C)cc2)cc1OC	9%	4.6%	nt	-24%	nt	nt	nt	?
Cc1ccc(C(=O)NNC(=O)C2CCN(c3nc(C)cc(C)n3)CC2)cc1	12%	0.2%	11%	nt	?	2%	8%	1%
